Source: PubChem (several laboratories)
Yeast UUG start: yeast start codon fidelity modulation. activity score, % at 18.7 µM. S. cerevisiae UUG-firefly luciferase reporter, luminescence/redox ratio. AID 602363. 350,000 compounds, 0.13% hits;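 active means replicate mean at a twofold rise or more, about +100% in these data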;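 further: firefly luciferase made from a UUG start codon reports start codon fidelity; reporter light over untreated wells divided by growth signal over untreated wells; some hits fall short of that in this replicate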
PABP polyA inh: PABP-poly(A) binding inhibition. inhibition, % at 35 µM. P11940. 290,000 compounds, 1% hits. AID 2014. PABP-poly(A) RNA binding, fluorescence polarization;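 active means 50% or more with normal probe brightness, or confirmed in later tests; about a fifth of its hits are not listed in these tables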;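 further: calls also rest on retests at 20 µM and on dose response follow-up; controls were probe without protein and protein plus probe with vehicle; some compounds called inactive have numbers as strong as hits; many hits fall short of the cut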
Target sequence (P11940 whole entry, looked up): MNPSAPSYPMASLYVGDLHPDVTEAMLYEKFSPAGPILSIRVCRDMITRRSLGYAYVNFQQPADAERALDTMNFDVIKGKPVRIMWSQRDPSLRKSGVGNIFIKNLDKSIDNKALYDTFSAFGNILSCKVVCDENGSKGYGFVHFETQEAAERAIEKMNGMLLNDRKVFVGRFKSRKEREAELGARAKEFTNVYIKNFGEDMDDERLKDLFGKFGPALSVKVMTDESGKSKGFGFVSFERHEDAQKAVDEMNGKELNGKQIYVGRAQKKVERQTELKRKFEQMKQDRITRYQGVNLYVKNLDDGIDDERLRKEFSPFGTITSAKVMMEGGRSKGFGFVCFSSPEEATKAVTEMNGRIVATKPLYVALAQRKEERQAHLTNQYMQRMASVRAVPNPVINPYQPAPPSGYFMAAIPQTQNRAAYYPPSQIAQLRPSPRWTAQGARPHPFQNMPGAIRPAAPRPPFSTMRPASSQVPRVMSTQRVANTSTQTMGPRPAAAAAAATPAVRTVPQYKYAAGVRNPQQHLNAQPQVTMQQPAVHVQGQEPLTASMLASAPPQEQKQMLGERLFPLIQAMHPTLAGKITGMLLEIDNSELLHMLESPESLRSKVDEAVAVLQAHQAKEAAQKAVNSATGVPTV
HIV Env fusion: HIV envelope-mediated fusion inhibition; HeLa-JRFL Env/CEM21 cell fusion, luciferase; inhibition, % at 12.3 µM; 360,000 compounds, 1.1% hits;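 active means mean replicate inhibition score of at least 50 and every replicate individually at or above 50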;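 further: 0% = plate neutral controls and 100% = maraviroc near 300 nM; one replicate is shown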
eIF4H FP inh: inhibitors of RNA binding by human eIF4H; Q15056; AID 2012; 290,000 compounds, 0.94% hits; eIF4H fluorescence polarization binding assay; inhibition, % at 35 µM;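 active means 50% or more with normal probe brightness, or confirmed in later tests; about a fifth of its hits are not listed in these tables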;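 further: calls also rest on retests at 20 µM and on dose response follow-up; 0% = protein and probe with vehicle and 100% = probe without protein; strong numbers were not always called active; many hits fall short of the cut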
MT1-MMP act inh: MT1-MMP (human) activation inhibition; HT1080 RFP-PRO-GFP cells, GFP/RFP ratio fluorescence, overnight; percent of plate control window, DMSO zero; GFP/RFP ratio change, % at 20 µM; 360,000 compounds, 0.061% hits;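 active means GFP/RFP ratio change of at least 30% with cell ATP level not reduced by more than half and red fluorescence within 50% of control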; further: strong numbers were not always called active
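Compound: 20 µM single dose, 1% DMSO / System: HT1080 RFP-PRO-GFP cells / Controls: DMSO and RFP-L50D-GFP cell wells / Read-out basis: GFP/RFP fluorescence ratio / Schedule: overnight compound exposure at 37 °C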
Rce1 inh: yeast Ras-converting enzyme inhibition | AID 2563 | calls only | Q03530 | yeast membranes, quenched prenylated peptide cleavage fluorescence | 290,000 compounds, 0.27% hits;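 active means fall in fluorescence gain of 50% or more versus controls, with final raw signal at or below 3038400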;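 further: plate controls were neutral control wells for no effect and wells lacking membranes for full effect; tested at 10 µM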
CSC inhib: blocks cancer stem cells. inhibition, % at 7.5 µM. cancer stem cell-like cells viability, luminescence. AID 2717. 300,000 compounds, 1.1% hits;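 active means mean at 75% or more and at least half the replicates too; tested in HMLE shEcad cells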;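 further: 0% = median of negative and 100% = median of positive control wells; the first replicate is given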
eIF4H FP inh retest: also measured in eIF4H FP inh; calls as there; inhibition, %; compound at 20 µM; confirmation average;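 mean of two retest wells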
PABP polyA inh retest: also measured in PABP polyA inh; calls as there; inhibition, %; compound at 20 µM; confirmation repeats;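 mean of two retest wells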
MT1-MMP act inh RFP: second read-out of MT1-MMP act inh, no call of its own (marks repeat the call); RFP signal change, %; measured here: RFP expression control read;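 0 = vehicle wells; hits needed this value within 50% of zero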
* = called active by the depositor; i = inactive; / = no result given; + = active, no number. An excerpt; rates above refer to the full screens.

SMILES | Yeast UUG start | PABP polyA inh | HIV Env fusion | eIF4H FP inh | MT1-MMP act inh | MT1-MMP act inh RFP | Rce1 inh | CSC inhib | others
Cc1ccccc1CN1CCN(CCCc2ccccc2)C(CCO)C1 (centres undefined) | -14 | -9 | -5 | 2 | -3 | -1 | i | 24
O=C(CCN1CCN(CCO)CC1)Nc1cccc(Br)c1 | / | -2 | 4 | -3 | 1 | 1 | i | 5
Cc1nc(-c2ccc(NC(=O)c3ccccc3C)cc2)cs1 | -11 | -5 | -98 | 0 | 2 | -2 | i | -5
CCOC(=O)C1C(=O)OC2(CCOC(C)(C)C2)C1C(=O)OCC (centres undefined) | -15 | -4 | / | -6 | 1 | 1 | i | -9
COc1ccc(-n2nc3c(c2NC(=O)C24CC5CC(CC(C5)C2)C4)CS(=O)C3)cc1 (centres undefined) | -17 | 2 | 1 | -4 | 0 | 2 | i | 5
COc1ccc(CNCC(O)(c2ccc(Cl)cc2)c2ccc(Cl)cc2)cc1 | 13 | 8 | 30 | 1 | 9 | -3 | i | -11
COc1ccccc1CN1C(=NC(=O)CCC2CCCC2)SC2CS(=O)(=O)CC21 (centres undefined) | -19 | 1 | 0 | 5 | -6 | -1 | i | -5
COC(=O)c1cccc(NC(=O)CN2CCc3ccccc3C2)c1 | -8 | 9 | -8 | 1 | -1 | -2 | i | -20
Cc1ccc(N2CC(C(=O)N3CCC4(CC3)CC(=O)c3ccccc3O4)CC2=O)cc1C (centres undefined) | -1 | / | / | / | 2 | -15 | i | -7
CC(C)OC(=O)c1c(N)n(CCCN2CCOCC2)c2nc3ccccc3nc12 | -11 | -6 | -7 | -8 | 1 | 8 | + | -11
Cc1ccc(NC(=O)CN(C)S(=O)(=O)c2cccc3cccnc23)cc1 | 1 | 0 | 1 | -4 | -2 | 3 | i | -8
N#Cc1c(NC(=O)CSc2nc(N)cc(=O)[nH]2)sc2c1CCCCCC2 | -20 | 8 | / | 2 | 14 | -22 | i | -13
O=C(/C=C/c1ccc(F)cc1)N1CCN(c2ccccn2)CC1 | -17 | 2 | -2 | -1 | -1 | 2 | i | -4
CNC(=O)CSc1nnc(C(C)C)n1C | / | 4 | 6 | -1 | 0 | 8 | i | -9
CCNC(=O)N1C(CC(=O)OCC)C(=O)NC2CCCCC21 (centres undefined) | -6 | -3 | / | 0 | 3 | 8 | i | -8
CC(=O)Nc1ccc(S(=O)(=O)N(C)CC(=O)NNC(=O)c2cccs2)cc1 | -12 | / | / | / | -3 | 2 | / | -10
Cc1ccc(S(=O)(=O)NC(=O)C2(C)CCN2C(=O)Cc2ccc(C(C)(C)C)cc2)cc1 (centres undefined) | -8 | / | 4 | / | 0 | 6 | / | /
CCOC(=O)C1CCN(C(=O)Nc2ccc(C)c(Cl)c2)CC1 | 1 | 9 | -2 | 1 | 3 | -2 | i | -8
O=C(Cn1nc(C(F)(F)F)c2c1CCC2)NC1CCCCC1 | -6 | -1 | 23 | -10 | 3 | 0 | i | -7
CCOc1ccc(S(=O)(=O)N2CCCCCC2)cc1 | -6 | 8 | -2 | -1 | -1 | 1 | i | 0
COC(=O)C1=C(C)NC(=O)/C1=C\c1cccs1 | -15 | -9 | / | -1 | 0 | -1 | i | -3
CCOc1ccc(NC(=O)COc2nsnc2N2CCOCC2)cc1 | / | 20 | 9 | 2 | -4 | -2 | i | -7
Cc1cccc(N(C(=O)Cn2nnc(-c3ccc(F)cc3)n2)C(C(=O)NC(C)(C)C)c2ccncc2)c1 (centres undefined) | 7 | 8 | 8 | -9 | -9 | -7 | / | -9
COc1cccc(/C=N/NC(=O)C(=O)N2CCCCCC2)c1OC | -12 | -13 | -6 | -13 | -1 | 3 | / | 1
O=c1[nH]c(-c2ccc(Cl)cc2)nc2c1cnn2-c1ccccc1 | / | 10 | / | 6 | / | / | i | /
Other results follow:
SMILES | Yeast UUG start | PABP polyA inh | HIV Env fusion | eIF4H FP inh | MT1-MMP act inh | MT1-MMP act inh RFP | Rce1 inh | CSC inhib | others
CCN(CC(=O)NCc1ccc(Cl)cc1)C(=O)CCOc1ccc(C)cc1 | -10 | / | 4 | / | 2 | 0 | i | -8
O=C/C(=C\Nc1ccc(Cl)cn1)c1nc2cc(Cl)ccc2o1 | -16 | 47 | / | 18 | -200 | 2 | i | 18
N=c1c(S(=O)(=O)c2ccccc2)cc2c(=O)n3ccccc3nc2n1C1CCCC1 | -15 | 9 | 14 | 7 | 3 | -8 | i | 0
Cc1cc(-c2ccccc2)n(-c2ccccc2)n1 | 15 | -14 | -55 | -13 | -1 | -1 | i | -10
CC1CC(Nc2cccc(O)c2)=CC(=O)O1 (centres undefined) | -14 | -3 | / | -7 | 2 | 4 | i | 3
CC(=O)Nc1ccc(NC(=O)CSc2nnc(NC(=O)c3cccc(F)c3)s2)cc1 | -6 | 13 | -98 | 7 | 2 | 3 | i | 4
Cc1ccc(CN2CCN(C3CCOCC3)CC2CCO)cc1 (centres undefined) | -21 | 5 | 11 | -8 | 0 | 1 | i | -11
C=CCn1cccc(C(=O)Nc2ccc(N(C)C)cc2)c1=O | -25 | 12 | -28 | 2 | 5 | 2 | i | -7
CCOc1ccc(S(=O)(=O)Nc2cc(OC)ccc2OC)cc1 | / | 0 | / | 2 | 14 | -6 | i | 57
Cc1ccc(CCN2CCN=C2N(C)C)cc1 | 10 | -6 | 31 | -3 | 3 | 7 | i | -12
CCOC(=O)C1(Cc2cccc(OC)c2)CCN(Cc2ccon2)CC1 | -11 | -1 | -1 | 8 | -6 | -7 | i | -8
Cc1c(-n2cc(C(=O)c3cc(Cl)ccc3O)cc(C#N)c2=O)c(=O)n(-c2ccccc2)n1C | -9 | 2 | / | 16 | -26 | 3 | i | 0
S=C(NC1CC1)NC1CCCc2ccccc21 (centres undefined) | / | -8 | 25 | -2 | 6 | 1 | i | -14
Cc1nn(-c2ccccn2)c2nc(-c3cccs3)cc(C(=O)NCc3ccco3)c12 | / | 3 | / | -3 | -3 | -6 | i | 11
O=C(NCC(=O)N1CCN(c2ncccn2)CC1)c1ccccc1F | 6 | / | -17 | / | -4 | 1 | / | 5
Cc1cc(Cl)ccc1OCC(=O)NNC(=O)C1CSC2(C)CCC(=O)N12 (centres undefined) | -6 | / | 71* | / | -6 | 1 | i | -4
COc1ccc(Cc2nnc(N/N=C/c3ccc(O)cc3O)[nH]c2=O)cc1OC | / | 0 | 4 | 12 | -4 | -8 | i | 91*
CC(=O)N1CCN(C(=O)c2ccc(Cl)c(S(=O)(=O)N3CCCC3)c2)CC1 | / | / | 3 | / | -2 | 0 | / | -20
COc1cc(C(=O)Nc2ccc(S(=O)(=O)N3CCOCC3)cc2)c([N+](=O)[O-])cc1OC | 11 | -4 | -4 | 6 | 5 | 6 | / | 8
COc1ccccc1N1CCN(S(=O)(=O)c2ccc3c(c2)CC(C)N3C(C)=O)CC1 (centres undefined) | -6 | 3 | 7 | -4 | 1 | -2 | i | 4
c1ccc(-c2nnsc2Sc2ccccn2)cc1 | / | 5 | -17 | 18 | -4 | -2 | i | -11
CSc1ccc(S(=O)(=O)N2CCN(Cc3ccc4c(c3)OCO4)CC2)cc1 | 19 | -14 | 17 | -6 | 4 | 3 | i | 17
CC(C)Oc1ccc(OCCNC2CCCC2)cc1 | -5 | 8 | 0 | 7 | 3 | 5 | i | 25
CCOC(=O)C1=CCN(S(=O)(=O)c2ccc(Cl)cc2)C1c1ccc(C)cc1 (centres undefined) | -11 | / | 32 | / | -2 | -6 | / | /
Cn1c(SCc2ccc(Br)cc2)nnc1-c1ccccn1 | -9 | -3 | -7 | -7 | 3 | 4 | i | -7

9 entries from above, ordered by length of the SMILES, descending.
SMILES | Yeast UUG start | PABP polyA inh | HIV Env fusion | eIF4H FP inh | MT1-MMP act inh | MT1-MMP act inh RFP | Rce1 inh | CSC inhib | others
COc1cc(C(=O)Nc2ccc(S(=O)(=O)N3CCOCC3)cc2)c([N+](=O)[O-])cc1OC | 11 | -4 | -4 | 6 | 5 | 6 | / | 8
N=c1c(S(=O)(=O)c2ccccc2)cc2c(=O)n3ccccc3nc2n1C1CCCC1 | -15 | 9 | 14 | 7 | 3 | -8 | i | 0
CC(=O)N1CCN(C(=O)c2ccc(Cl)c(S(=O)(=O)N3CCCC3)c2)CC1 | / | / | 3 | / | -2 | 0 | / | -20
CSc1ccc(S(=O)(=O)N2CCN(Cc3ccc4c(c3)OCO4)CC2)cc1 | 19 | -14 | 17 | -6 | 4 | 3 | i | 17
CCN(CC(=O)NCc1ccc(Cl)cc1)C(=O)CCOc1ccc(C)cc1 | -10 | / | 4 | / | 2 | 0 | i | -8
CCOc1ccc(S(=O)(=O)Nc2cc(OC)ccc2OC)cc1 | / | 0 | / | 2 | 14 | -6 | i | 57
Cc1cc(-c2ccccc2)n(-c2ccccc2)n1 | 15 | -14 | -55 | -13 | -1 | -1 | i | -10
CC1CC(Nc2cccc(O)c2)=CC(=O)O1 (centres undefined) | -14 | -3 | / | -7 | 2 | 4 | i | 3
c1ccc(-c2nnsc2Sc2ccccn2)cc1 | / | 5 | -17 | 18 | -4 | -2 | i | -11

Remaining list, next part.
SMILES | Yeast UUG start | PABP polyA inh | HIV Env fusion | eIF4H FP inh | MT1-MMP act inh | MT1-MMP act inh RFP | Rce1 inh | CSC inhib | others
CN(/N=C/C=C/c1ccccc1)c1cc(=O)n(C)c(=O)[nH]1 | 5 | 0 | / | -6 | 9 | 9 | i | -2
COc1ccc(N2CC(O)=C(c3nc(-c4ccc(Br)cc4)cs3)C2=N)cc1 | / | 6 | -14 | 3 | 2 | 3 | i | -10
COc1ccc(-c2[nH]ncc2CN(C)Cc2nonc2C)c(OC)c1 | / | -7 | 11 | -1 | -1 | 2 | i | 10
COC(=O)c1sc2nc(-c3ccco3)ccc2c1N | -27 | 17 | i | 55* | -2 | 10 | i | 7 | eIF4H FP inh retest=67*;PABP polyA inh retest=37
Cc1cc(Cl)ccc1OC(C)C(=O)NCCCCc1ccccc1 (centres undefined) | -9 | 5 | -16 | 7 | 5 | -3 | i | /
CCCCCn1c(CCC(=O)Oc2ccccc2OC)nc2c1c(=O)[nH]c(=O)n2CCCC | -11 | -3 | / | -9 | -3 | -2 | i | -4
CS(=O)(=O)N1CCC(C(=O)NCc2ccc(F)cc2Cl)CC1 | 9 | -6 | / | -7 | -5 | 1 | i | -8
O=C(Nc1ccc(Cl)cc1)C1C2CCC3C(CCC21)C3(Cl)Cl (centres undefined) | 2 | -10 | / | -11 | -3 | -10 | / | /
CCOc1ccccc1CN1C(=O)NC(C)(c2ccccc2)C1=O (centres undefined) | 17 | 7 | 0 | 5 | 1 | -1 | i | 0
Cc1cc(C)cc(NC(=O)COC(=O)COc2cccc3c2OC(C)(C)C3)c1 | / | / | 1 | / | -1 | 5 | i | -20
c1ccc(-c2nnc(NC3=NCCC3)o2)cc1 | -47 | -2 | -3 | -9 | 0 | 3 | i | 15
CCN1CCN(C(=O)c2cc3cc4ccc(OC)cc4nc3s2)CC1 | -7 | -17 | -22 | -1 | 3 | 2 | i | 43
CC1(C(=O)NCc2ccc3c(c2)OCO3)CCN1C(=O)CC1CCCC1 (centres undefined) | -11 | / | 3 | / | -1 | -3 | / | /
COc1cc(NC(=O)c2ccco2)c(C(=O)OCC(=O)c2c[nH]c3ccccc23)cc1OC | -22 | 1 | 17 | 4 | -3 | 2 | i | 83*
